Mtb hypoxia inh: PubChem AID 1159583 | M. tuberculosis hypoxia-regulated fluorescent reporter, fluorescence | fluorescence inhibition, % (test concentration not listed) | actives 0.1% (n = 300,000);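 active means 35 to 45% if threefold the growth effect, above 45% if 1.5-fold the growth effect; inactive means the rest, general growth blockers included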;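 further: wells of about 50 µL received 100 nL stock; 0% = vehicle wells and 100% = reference inhibitor wells; whole bacteria with a GFP reporter of the hypoxia response; strong numbers were not always called active; many hits fall short of the cut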
Autofluor counter: flagged as autofluorescent in microsphere protease counterscreen; compound autofluorescence counterscreen, microsphere flow cytometry; hits give high values; actives 3.1% (n = 360,000); fluorescence intensity (test concentration not listed);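 active means at least 3 SD above the mean of all compounds, about 16000 in these data; inconclusive means too few beads counted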;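 further: 100 nL of 1 mM stock went into each well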
BJeLR lethal: MLPCN primary cell-based screen for lethality selective to Ras in HRASV12 cells | inhibition, % (no concentration beside the values) | AID 1554, 2009 | BJeLR (HRASV12) viability, CellTiter-Glo ATP luminescence, 48 h; reference of the scale not given here | actives 0.17% (n = 300,000);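 active means replicate mean above 50%; inconclusive means above 50% but judged a plate artefact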;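 further: 50 nL library stock added to about 25 µL; numbers are from one replicate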
PrP 5UTR inh: inhibition of PrP 5' UTR reporter expression; actives 0.35% (n = 340,000); inhibition, % (test concentration not listed); cell-based PrP 5' UTR mRNA reporter, plate reader;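 active means every replicate at 50% or more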;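 further: 0 = median of the neutral control wells; tested in H4 reporter cells; numbers are from one replicate; inactives centre near -14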
RN4220 kill: growth inhibition of S. aureus RN4220, primary screen, OD600; inhibition, % (concentration not given with the values); 16 h; actives 0.33% (n = 330,000);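 active means z-score of -3 or lower and OD600 up to 0.18 on both plates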;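 further: plate controls were untreated cells for no effect and reference antibiotic for full effect; stock transfer was 100 nL into about 80 µL; one replicate is shown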
ugtP null kill: growth inhibition of ugtP-null S. aureus, primary screen, RN4220 ugtP deletion, OD600. 16 h; some inactives read as strong as hits. growth inhibition, % (test concentration not listed). actives 0.54% (n = 330,000);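 active means z-score under -3 and OD600 up to 0.15 on both plates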;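 further: plate controls were untreated wells for no effect and antibiotic for full effect; wells of about 80 µL received 100 nL stock; the first replicate is given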
Mtb hypoxia inh growth: further read-out of Mtb hypoxia inh, marked with its call; growth inhibition, %; measured here: M. tuberculosis growth (absorbance);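 0% = vehicle and 100% = reference antibiotic; read after six days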
An asterisk follows results filed as active; ? = inconclusive; . = not tested or not shown; & = joins results of further samples.

SMILES	Mtb hypoxia inh	Mtb hypoxia inh growth	Autofluor counter	BJeLR lethal	PrP 5UTR inh	RN4220 kill	ugtP null kill
CCOc1ccc2c(c1)C(N(CCN1CCOCC1)C(=O)Nc1ccccc1)CC(C)(C)O2 (configuration not stated)	7	3	4043	6	-8	0.5	4
C=CCN1C(=O)C(Cc2ccc(OC)cc2)S/C1=N\N=C\c1cccs1 (configuration not stated)	.	.	3194	-3	-18	.	.
COc1ccc(C=NNC(=O)c2nnn(-c3nonc3N)c2-c2cccc(OC)c2)cc1	3	-2	.	.	.	2.9	4
COC(=O)[C@]1(Cc2ccccc2)N[C@H](CN(C)S(=O)(=O)c2ccc(F)cc2)[C@@H]2C(=O)N(Cc3ccccc3)C(=O)[C@@H]21	1	2	2847	.	-25	2.0	4
O=C(CSc1nnnn1-c1ccccc1)Nc1ncc2c(n1)CC(c1ccco1)CC2=O (configuration not stated)	4	-3	3404	-8	-8	5.6	-14
COc1ccc(-n2c(COc3cccc4ccccc34)nnc2SCC(=O)NCc2ccco2)cc1	8	3	.	-1	-4	1.5	-10
Cc1nc(NCc2ccc3c(c2)OCO3)c2nnn(Cc3ccccc3)c2n1	7	1	6600	-13	.	2.7	6
O=C(N/N=C/c1ccccc1OCc1ccccc1)c1cccnc1	.	.	2646	1	-20	.	.
Cc1nn(-c2ccccc2)c(Cl)c1/C=C(\C#N)C(=O)NC(C)C	1	16	2404	-9	-18	12	-8
O=C(Nc1ncccn1)C1CCCN1S(=O)(=O)c1ccc(Cl)c(Cl)c1 (configuration not stated)	2	1	11392	-2	-17	-0.2	6
C/C(=N\NC(=O)c1cccc(Cl)c1)C1C(=O)c2ccccc2C1=O	.	.	2005	20	-48	.	.
CN(C)c1ccc(/C=N/OC(=O)Nc2ccccc2)cc1	.	.	3499	3	-52	.	.
Cc1cccc(C)c1NC(=O)CN(C)C(=O)c1ccc(N2C(=O)CCC2=O)cc1	-4	10	6548	-8	12	3.2	1
CCOC(=O)c1cc(NC(=O)OC)c(C)nc1C	10	7	3305	-10	-23	1.1	-2
COc1ccccc1C(=O)N/C(=C/c1ccco1)C(=O)Nc1cccc(C(=O)O)c1	-12	4	5537	-5	-16	3.7	1
C/C(=N/NC(=O)c1ccccc1)C(=O)O	.	.	2877	-3	-24	.	.
Cc1ccc(Oc2ccc(OCC(=O)OC3CCS(=O)(=O)C3)cc2)cc1 (configuration not stated)	6	11	.	-6	.	-3.5	2
Cc1ccc(N(C(=O)CS(=O)CC(=O)Nc2ccc(F)cc2)C(C)C(=O)NC(C)(C)C)cc1 (configuration not stated)	13	2	3391	-5	-8	4.6	8
O=C(Nc1ccc2nc(-c3ccco3)[nH]c2c1)c1cccs1	.	.	2938	15	-61	-6.0	4
CC(C)(C)OC(=O)N[C@@H](Cc1ccccc1)C(=O)N1CCC(C(=O)O)CC1	.	.	2733	2	-11	.	.
COc1cc2sc(C)nc2c2sccc12	.	.	4514	2	7	4.1	-2
c1ccc(Oc2nc(NCc3ccco3)nc(NCc3ccco3)n2)cc1	8	1	.	-3	-14	6.3	13
O=C(O)/C=C/c1ccc(Cn2ccnc2)cc1	.	.	5733&5354	15	50&-10	.	.
Cc1cccc(CCN=C(N)NS(=O)(=O)c2ccccc2)c1	3	-2	5193	12	-29	4.2	4

An excerpt of these results, with values under each structure.
Under each structure: Mtb hypoxia inh	Mtb hypoxia inh growth	Autofluor counter	BJeLR lethal	PrP 5UTR inh	RN4220 kill	ugtP null kill
> COc1ccc(-n2c(COc3cccc4ccccc34)nnc2SCC(=O)NCc2ccco2)cc1
    8	3	.	-1	-4	1.5	-10
> Cc1nc(NCc2ccc3c(c2)OCO3)c2nnn(Cc3ccccc3)c2n1
    7	1	6600	-13	.	2.7	6
> O=C(N/N=C/c1ccccc1OCc1ccccc1)c1cccnc1
    .	.	2646	1	-20	.	.
> Cc1nn(-c2ccccc2)c(Cl)c1/C=C(\C#N)C(=O)NC(C)C
    1	16	2404	-9	-18	12	-8
> O=C(Nc1ncccn1)C1CCCN1S(=O)(=O)c1ccc(Cl)c(Cl)c1 (configuration not stated)
    2	1	11392	-2	-17	-0.2	6
> C/C(=N\NC(=O)c1cccc(Cl)c1)C1C(=O)c2ccccc2C1=O
    .	.	2005	20	-48	.	.
> CN(C)c1ccc(/C=N/OC(=O)Nc2ccccc2)cc1
    .	.	3499	3	-52	.	.
> Cc1cccc(C)c1NC(=O)CN(C)C(=O)c1ccc(N2C(=O)CCC2=O)cc1
    -4	10	6548	-8	12	3.2	1
> CCOC(=O)c1cc(NC(=O)OC)c(C)nc1C
    10	7	3305	-10	-23	1.1	-2
> COc1ccccc1C(=O)N/C(=C/c1ccco1)C(=O)Nc1cccc(C(=O)O)c1
    -12	4	5537	-5	-16	3.7	1
> C/C(=N/NC(=O)c1ccccc1)C(=O)O
    .	.	2877	-3	-24	.	.
> Cc1ccc(Oc2ccc(OCC(=O)OC3CCS(=O)(=O)C3)cc2)cc1 (configuration not stated)
    6	11	.	-6	.	-3.5	2
> Cc1ccc(N(C(=O)CS(=O)CC(=O)Nc2ccc(F)cc2)C(C)C(=O)NC(C)(C)C)cc1 (configuration not stated)
    13	2	3391	-5	-8	4.6	8
> O=C(Nc1ccc2nc(-c3ccco3)[nH]c2c1)c1cccs1
    .	.	2938	15	-61	-6.0	4
> CC(C)(C)OC(=O)N[C@@H](Cc1ccccc1)C(=O)N1CCC(C(=O)O)CC1
    .	.	2733	2	-11	.	.
> COc1cc2sc(C)nc2c2sccc12
    .	.	4514	2	7	4.1	-2

Carrying on.
SMILES	Mtb hypoxia inh	Mtb hypoxia inh growth	Autofluor counter	BJeLR lethal	PrP 5UTR inh	RN4220 kill	ugtP null kill
O=C(NNC(=O)c1ccccc1F)c1ccc(-n2cncn2)c([N+](=O)[O-])c1	-4	-7	?	-2	-25	-0.7	2
O=C(CN1CCN(Cc2ccccc2)CC1)NNC(=O)c1ccc(Cl)cc1	4	-3	4409	5	-17	3.5	12
CS(=O)(=O)n1nc(-c2ccc(Cl)cc2)nc1N	16	13	5002	5	-25	5.3	5
COc1ccc(N2C(=O)NC3CC2(C)Oc2ccc(Br)cc23)cc1OC (configuration not stated)	.	.	2536	9	-49	3.3	3
O=C(c1cccc(Cl)c1)N1CCCc2ccccc21	21	10	4124	-3	-13	3.5	10
CCC(C)N(CC(=O)Nc1cccc(C)c1C)C(=O)CCl (configuration not stated)	20	21	3121	36	-22	1.0	-8
CCn1c(CNC(=O)c2ccco2)nnc1SCC(=O)Nc1cc(C(F)(F)F)ccc1Cl	1	6	10494	-1	-16	1.1	-2
Cc1ccccc1NC(=O)c1cccc(NC(=O)c2c(C(=O)O)cccc2[N+](=O)[O-])c1	12	11	4114	-2	-19	2.9	7
COc1cc(C(=O)Nc2nccs2)c(Br)c(OC)c1OC	9	12	9856	-7	-21	4.0	-15
COc1ccc(S(=O)(=O)N2CCN(S(=O)(=O)c3ccc4c(c3)OCCO4)CC2)cc1C	2	14	4577	6	8	7.0	2
Cc1ccc(N/C=C(\[N+](=O)[O-])S(=O)(=O)c2ccccc2)cc1	9	2	3830	9	-19	-0.6	4
CC1(C)Cc2nc(-c3ccccc3)nc(SCC(O)CO)c2CO1 (configuration not stated)	3	4	5896	-3	.	0.1	4
Cc1ccc(C)c(NC(=O)CN(C)C(=O)/C=C/c2ccco2)c1	-2	0	4440	.	-5	2.4	0
Cc1c(NC(=O)c2ccc3c4c(cccc24)CC3)c(=O)n(-c2ccccc2)n1C	12	25	5622	0	-9	6.7	1
COc1cc(OC)c(C2C(C#N)=C(N)OC3=C2C(=O)CC(C)C3)cc1OC (configuration not stated)	-7	-1	10830	2	-6	0.6	-1
O=c1c2ccccc2nnn1Cc1cccc2ccccc12	13	14	2551	-7	-12	1.0	12
Cc1ccc(C)c(NC(=S)NCCc2ccc(S(N)(=O)=O)cc2)c1	.	.	4094	5	1	1.5	0
Cc1ccn2c(=O)nc(SCC(=O)NCc3ccc4c(c3)OCO4)nc2c1	3	8	5734	-1	-4	1.3	1
O=C(CC1SC(N2CCOCC2)=NC1=O)Nc1ccccc1Cl (configuration not stated)	-9	3	3004	.	-13	-3.4	-8
O=C(NCc1nc2ccccc2[nH]1)C1=CC(c2ccc(C(F)(F)F)cc2)CC(OCc2ccc(CO)cc2)O1 (configuration not stated)	6&20	9&9	.	.	.	19&2.5	12&20
Cc1cc2cc(CCNC(=O)CC(C)(C)C)c(=O)[nH]c2cc1C	10	12	6230	.	-11	2.4	4
C#CCOCCOCCOCCNc1nc(N2CCN(C(=O)Cn3cc(CCCN=C(N)N)nn3)CC2)nc(N2CCN(C(=O)[C@H](C(C)C)n3cc(CCO)nn3)CC2)n1	.	.	4359	4	-35	.	.
Cc1ccc(Sc2ccc(CN3CCCC3)cc2[N+](=O)[O-])cc1	16	18	3703	1	-17	-2.9	1
C/C=C/C(=O)N1CC2(CC(c3cccc(NC(=O)/C(C)=C/C)c3)=NO2)C[C@H]1C(N)=O (some centres not stated)	.	.	2974	-3	-30	.	.
O=C(NC12CCC(O)C(SC1)/C2=N/O)c1ccccc1 (configuration not stated)	.	.	19906*	6	-25	.	.
O=C(COC(=O)c1ccccc1-n1cnnn1)c1ccc(Br)cc1	7	-3	5904	5	-6	6.8	3
COc1ccc(NC(=O)C2CC(c3ccc(OC)c(OC)c3)=NO2)cc1OC (configuration not stated)	4	3	10820	-3	-8	3.3	-1
Cc1cc(N2CCN(c3nc4ccccc4s3)CC2)n2ncnc2n1	4	5	7732	20	0	7.4	5
O=C(/C=C/c1ccco1)OCn1nnc2ccccc2c1=O	-1	5	3881	8	-4	1.8	0
Cc1ccccc1C(=O)NC1CCN(Cc2nnnn2C(C)(C)C)CC1	0	0	4370	-5	-52	3.5	7
O=C1Nc2cc(S(=O)(=O)N3CCCC3)ccc2N2CCCC12 (configuration not stated)	3	25	8564	-6	-8	-1.2	-10
Cc1nnc(SCC(=O)N(Cc2ccccc2)C(C)C)n1-c1ccccc1	12	2	3419	-4	-12	-11	-2
C/C(=N/Nc1nc(-c2ccccc2)c(CC(=O)O)s1)c1ccccc1	.	.	4444	5	-45	.	.
Cc1cccc2cc(CN(Cc3cccnc3)C(=O)c3ccncc3)c(=O)[nH]c12	8	9	4239	12	-19	2.6	9
N#CCSc1nc2ccccc2c(=O)n1C1CCCCC1	15	7	4379	5	10	6.1	11
NC(=O)C1=C[C@@H](c2csc3ccccc23)C[C@@H](OCCCCO)O1	.	.	3615	-7	-13	.	.
CCOc1ccccc1C1C(C#N)=C(N)Oc2cc(N)ccc21 (configuration not stated)	13	-6	21823*	-1	-17	11	3
Cc1nn(C)cc1S(=O)(=O)Nc1ncccn1	0	-7	4656	-2	-26	-1.3	4
CN(C)CCn1c(=N)n(CC(O)c2ccc(Cl)c(Cl)c2)c2ccccc21 (configuration not stated)	8	13	2020	7	-9	-2.2	-10
CC1(C)Cc2cccc(OCC(=O)N3CCN(S(=O)(=O)c4ccccc4F)CC3)c2O1	-1	1	2845	4	5	4.4	-3
Cc1ccc2c(c1)-c1ncc(C(=O)c3cc(Br)ccc3O)cc1CO2	1	-2	.	0	.	12	63
O=C(COc1ccc(OCc2ccccc2)cc1)NN=C1CCCC1	13	7	4212	-1	-23	5.7	0
COc1cccc2sc(=NC(=O)CCS(=O)(=O)c3ccc(C)cc3)n(C)c12	-2	0	4837	-2	-12	4.1	1
O=C(Nc1cc(Cl)ccc1N1CCOCC1)c1ccc2c(c1)OCCO2	11	2	5462	-13	-24	-2.0	-7
O=C1C2C3C=CC(CC3)C2C(=O)N1c1ccc(Br)cc1[N+](=O)[O-] (configuration not stated)	-4	-7	3915	1	-19	0.3	3
O=C(CN1CCN(c2nc(-c3ccc(Cl)cc3)cs2)CC1)NCc1ccco1	8	2	9134	-6	-26	1.6	12
Cc1cc(C)c(-c2cc(C)nc3ncnn23)c(C)c1	-2	10	4214	5	-11	6.4	2
O=C1c2cccc3cccc(c23)C(=O)N1c1ccccn1	9	6	3191	.	-8	1.3	5
CCOC(=O)N/N=C\c1ccc(OC/C=C/c2ccccc2)c(OC)c1	.	.	5159	7	-3	.	.
Cc1cnc(NC(=O)CSc2nnc(N)s2)s1	10	7	4574	-6	-16	3.4	2
Cc1ccc(-c2nn(-c3ccccc3)cc2CN(C)C(=O)CCC(=O)O)cc1C	0	-3	2297	4	-15	5.5	2

Bioassay records as filed in PubChem BioAssay.
